VDR inh = Inhibitors of the vitamin D receptor (VDR): qHTS. Vitamin D3 receptor (Homo sapiens), P11473. VDR-SRC2-3 peptide fluorescence polarization, 2 h. Potency, µM, for the others: max response, negative = inhibition, usual class: inhibitors. 400,000 tested, 0.93% active; active means well fitted inhibition curve with a large enough effect; inconclusive means small, poorly fitted or top-dose-only effect, or another doubt; inactive means no such curve, though single readings can be large or run the other way; further: series mostly up to about 120 µM
Target sequence (P11473 whole entry, looked up): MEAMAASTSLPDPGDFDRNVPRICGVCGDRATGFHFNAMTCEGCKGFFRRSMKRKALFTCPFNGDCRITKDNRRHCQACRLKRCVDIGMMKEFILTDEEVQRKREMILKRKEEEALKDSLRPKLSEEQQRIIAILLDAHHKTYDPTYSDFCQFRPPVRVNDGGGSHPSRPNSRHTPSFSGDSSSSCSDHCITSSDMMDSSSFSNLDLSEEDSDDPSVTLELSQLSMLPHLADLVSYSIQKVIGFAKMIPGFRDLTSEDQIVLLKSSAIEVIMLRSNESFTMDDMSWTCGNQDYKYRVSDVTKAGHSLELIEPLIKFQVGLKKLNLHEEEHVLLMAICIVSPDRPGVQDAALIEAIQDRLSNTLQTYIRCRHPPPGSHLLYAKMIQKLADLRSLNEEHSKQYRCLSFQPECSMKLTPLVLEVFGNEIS
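VDR–SRC2-3 interaction, FP format. Cmpds 23 nl via pintool, brief spin, 2 h ambient incubation.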
Active calls of the source: *; ? = inconclusive; & = joins results of further samples; [ ] = remark or other dose. On the % scale 0 is the no-effect control and ±100 the full control effect; potency means the concentration at half of the fitted maximal effect.

Structure | VDR inh
COc1cc(S(=O)(=O)N2CCOCC2)ccc1NC(=O)COC(=O)/C=C/c1cc(OC)c(OC)c(OC)c1 | -8.6%
Cn1c(=O)c2c(ncn2CC(O)CNc2cccc(Cl)c2)n(C)c1=O (configuration not stated) | -6.1%
Cc1cccc(NC2(C(F)(F)F)N=C(c3ccccc3)NC2=O)n1 (configuration not stated) | -7.5%
CC1(C)C[C@H]2C3=CCC4[C@@]5(C)CC[C@H](O)[C@](C)(CO)C5CC[C@@]4(C)[C@]3(C)C[C@@H](O)[C@@]2(CO)[C@@H](O)[C@@H]1O (some centres not stated) | 7.3%
COc1ccc(-c2csc(Nc3cc(C)ccn3)n2)cc1OC | 9.3%
O=C(CN1CCC(c2nc3ccccc3s2)CC1)N1CCCCC1 | 15.7%
O=C(O)C1CCCN1c1ncnc2c1oc1ccccc12 (configuration not stated) | 15.1%
CC(=O)Nc1ccc2nc(NC(=O)COc3ccc([N+](=O)[O-])cc3)sc2c1 | -3.1%
Cc1cc2c(c(=O)n1Cc1cccnc1)C(Cc1ccccc1)C(C#N)=C(N)O2 (configuration not stated) | -7.9%
O=[N+]([O-])c1cc(-c2n(-c3ccccn3)c3ccccc3[n+]2-c2ccccn2)ccc1Cl | -10.2%
Cn1c(=O)cc(OCCCC(=O)N2CCN(c3ccccc3)CC2)c2ccccc21 | 31.2%[activator]
CC1(C)Cc2cccc(OCC(=O)NCCc3ccccc3)c2O1 | 1.9%
O=C(CCN1C(=O)/C(=C\C=C\c2ccccc2)SC1=S)Nc1ccccc1C(=O)O | ?
O=C(NNC(=O)c1ccc(Cl)c(Cl)c1)c1ccncc1 | -5.2%
COc1ccc(-c2cc(C(=O)N3CCOCC3)c3ccccc3n2)cc1OC | -2.1%
COc1ccc(-c2cc(C(F)(F)F)nc(S(=O)(=O)CCCC(=O)Nc3ccccc3C(F)(F)F)n2)cc1OC | ?

Reprinted at random: two entries already listed
Structure | VDR inh
O=C(NNC(=O)c1ccc(Cl)c(Cl)c1)c1ccncc1 | -5.2%
Cc1cc2c(c(=O)n1Cc1cccnc1)C(Cc1ccccc1)C(C#N)=C(N)O2 (configuration not stated) | -7.9%

Later entries.
Structure | VDR inh
CCn1ccnc1CN(C)Cc1cn(-c2ccc(C)cc2)nc1-c1ccc(F)cc1 | 3.3%
CCCCn1nc(C(=O)Nc2cc(S(=O)(=O)N(C)C)ccc2C)c2ccccc2c1=O | -16.4%
O=C1c2ccsc2SCCN1Cc1c(F)cccc1Cl | -7.8%
O=C1CSC(c2cccc(F)c2)N1c1ccc(O)cc1 (configuration not stated) | 2.6%
Cc1cc(C)nc(SCC(=O)NC(=O)c2ccccc2O)n1 | ?
CCN1CCc2c(C#N)c(N3CCCCC3)nc(NCc3ccccc3)c2C1 | -6.0%
CC(=O)Nc1ccc(NC(=O)CCc2nc3ccccc3c(=O)[nH]2)cc1 | 3.1%
c1ccc2oc(-c3nn4c(Cn5cnc6ccccc65)nnc4s3)cc2c1 | -18.0%
O=C(COC(=O)c1cc(Br)ccc1O)Nc1ccc2c(c1)OCO2 | -12.2%
CCCC(NS(=O)(=O)c1ccc(OC)cc1)C(=O)O (configuration not stated) | 11.9%
O=C(Nc1ccc(N=Nc2ccccc2)cc1)c1cccc(Cl)c1 | -14.2%
CN(CCOc1ccccc1)C(=O)C1CCN(C(=O)c2ccc(Cl)cc2)CC1 | -6.0%
COc1ccccc1N1CCN(S(=O)(=O)Cc2ccccc2Cl)CC1 | 7.4%
O=C(c1ccc([N+](=O)[O-])cc1)c1cc2ccc(O)cc2oc1=O | 3.8%
CC(=O)Cn1cnc2c(cnn2-c2ccccc2)c1=O | 5.6%
COc1cc(C)c(S(=O)(=O)NCc2cccs2)cc1C | -1.1%
COc1cc(CNC(=O)c2ccc(Cn3nc(C)c(Cl)c3C)o2)cc(OC)c1 | -0.5%
O=C(CN(C(=O)CNC(=O)c1ccco1)c1ccc(F)cc1)NC1CCCC1 | 1.6%
CCCCn1c(SCC(=O)c2ccc(O)cc2O)nc2cc(S(N)(=O)=O)ccc21 | 5.0%
S=C(c1ccc(-c2cccc(Cl)c2)o1)N1CCOCC1 | ?
Cc1ccc(C)c(NC(=O)CSc2nc(-c3ccccc3)cc(=O)[nH]2)c1 | 4.1%
CN(C)CCNC(=O)c1ccccc1 | -7.1%
COc1ccc(C(=O)NC2CCCc3c2cnn3-c2cccc(C)c2C)c(OC)n1 (configuration not stated) | -12.5%
O=C(CN1CCN(Cc2ccc3c(c2)OCO3)CC1)Nc1ccc2[nH]c(=O)[nH]c2c1 | 4.6%
CCn1ccnc1CNC(=O)CC1C(=O)NCCN1Cc1ccc(F)cc1Cl (configuration not stated) | -2.4%
Cc1ccccc1C(=O)NN1CC(C(=O)OCc2ccc(Cl)c(Cl)c2)CC1=O (configuration not stated) | -7.7%
O=C(CSc1nnnn1-c1cccc2c1CCCC2)N1CCCC1 | -18.2%
Cc1cc(C)n(-c2ccc(C(=O)Nc3ccc(N4CCOCC4)cc3)cc2)n1 | -9.6%
Cc1ccc(C(c2nnnn2Cc2ccccc2)N2CCN(Cc3ccncc3)CC2)cc1 (configuration not stated) | -16.0%
CCCCOC(=O)c1ccc(NC(=O)c2c(Cl)ccc(Cl)c2OC)cc1 | -15.1%
COCCn1c(C)cc(C(=O)COC(=O)c2ccc(-n3nc(C)cc3C)cc2)c1C | 9.0%
COc1cc(C(=O)NNC(=S)NCc2ccco2)cc(OC)c1OC | 3.4%

Rewritten field by field: entries from further up.
SMILES: COCCn1c(C)cc(C(=O)COC(=O)c2ccc(-n3nc(C)cc3C)cc2)c1C
  VDR inh: 9.0%

SMILES: COc1cc(C(=O)NNC(=S)NCc2ccco2)cc(OC)c1OC
  VDR inh: 3.4%

(further entries)
structure,VDR inh
CC(C)Oc1ccc(CNC(=O)Cn2c(-c3cccs3)cc3ccccc32)cc1,2.0%
COCCCn1c(=O)c2ccccc2n(CC(=O)Nc2ccc3c(c2)OCCO3)c1=O,-0.6%
Cc1ccc(SCc2cc(=O)n(C)[nH]2)cc1,4.5%
CN(CC(=O)Nc1ccccc1Br)C(=O)CCSc1ccc(F)cc1,-10.8%
Cc1nnc(N2C(=O)c3ccc(Br)cc3C2=O)s1,-24.0%
O=C(O)c1ccc(S(=O)(=O)N2CCOCC2)o1,-5.4%
CCc1ccccc1NC(=O)CN(C)C(=O)CSc1nnc(Nc2ccc(C)cc2)s1,-6.8%
COc1ccc(S(N)(=O)=O)cc1C(=O)NCC(C)(C)N1CCOCC1,-6.7%
NS(=O)(=O)c1cnccc1Oc1cccc(Cl)c1,9.8%
O=C(c1ccccc1)c1coc2c1C(=O)c1ccccc1C2=O,7.7%
O=C(NCCN1CCOCC1)c1ccc(Cl)cc1[N+](=O)[O-],3.6%
CCC1CCCCN1CCNS(=O)(=O)c1ccc2c(c1)CCN2C(C)=O (configuration not stated),0.2%
CNC(=O)C1=C(C)Nc2nc3ccccc3n2C1c1cccc(OC)c1 (configuration not stated),-18.4%
O=C(NNc1ccc([N+](=O)[O-])cc1)C12CC3CC(CC(C3)C1)C2,3.2%
CCCCSc1ccc2nc(-c3ccc(C#N)cc3)cn2c1,-12.6%

The closing 2 entries of the section before lead into the next.
structure,VDR inh
O=C(NNc1ccc([N+](=O)[O-])cc1)C12CC3CC(CC(C3)C1)C2,3.2%
CCCCSc1ccc2nc(-c3ccc(C#N)cc3)cn2c1,-12.6%
O=C1CCCC(O)=C1C=NCc1ccccc1,11.1%
O=c1oc2ccccc2n1CCCOc1ccccc1,-10.8%
CCN(CC)CCCN1C(=O)C(O)=C(C(=O)c2ccco2)C1c1ccc(C)o1 (configuration not stated),-15.1%
Cc1ccc2c(c1)-c1c(c(C(=O)N3CCN(c4cc(Cl)ccc4C)CC3)nn1C)CS2,4.9%
CCOc1ccc(NS(=O)(=O)c2ccc(OCC)c3ncccc23)cc1,-5.5%
Nc1c(N(Cc2ccco2)C(=O)COc2ccc(Cl)cc2)c(=O)[nH]c(=O)n1Cc1ccccc1,0.8%
Cc1c(C(=O)N2CCOCC2)oc2ccc(S(=O)(=O)N3CCCC3)cc12,7.0%
Cc1nc(N2CCOCC2)nc(OC(C)C)c1[N+](=O)[O-],-9.4%
COc1cc(NS(=O)(=O)c2ccc(NS(=O)(=O)c3ccccc3)cc2)nc(OC)n1,4.8%
Cc1c(Cl)cccc1NC(=S)NC1CCN(Cc2ccccc2)CC1,-8.5%
COc1cc(NC(=O)c2ncn[nH]2)cc(OC)c1OC,-3.4%
O=C(NN1C(=O)NC2(CCCCC2)C1=O)c1ccc(-c2ccc(Cl)cc2)o1,1.9%
Cc1nnc(SCCn2c(N3CC(C)CC(C)C3)nc3c2c(=O)n(C)c(=O)n3C)s1 (configuration not stated),-26.9%
Clc1ccccc1Cn1nnc2c(Nc3ccccc3)ncnc21,19.0%
CC1CCN(C(=O)CN(C)S(=O)(=O)c2cccc3nsnc23)CC1,-10.1%
COc1ccccc1-n1c(SCC(=O)O)nnc1-c1ccc(S(=O)(=O)N2CCCCC2)cc1,16.4%
Cc1ccc(NC(CC(=O)c2ccccc2)C(=O)O)cc1Cl (configuration not stated),?
CC1(C)Cc2ccccc2C(/C(=N/O)C(N)=O)=N1,7.6%
Cc1ccccc1C(=O)OCc1nnc(-c2ccc(Cl)cc2)o1,5.9%
Cc1ccc(S(=O)(=O)NC(=O)Nc2nnc(C3CC3)s2)cc1,20.0%
COC(=O)c1nn(-c2nc(-c3cccc(OC)c3)cc(C(F)(F)F)n2)cc1[N+](=O)[O-],2.0%
O=C(NC1=NCCS1)c1cc(Cl)ccc1Cl,-20.3%
CCCn1nc2cc(C(=O)NCc3ccc4c(c3)OCO4)ccc2c1OCC,-8.2%
O=C(O)CSC1CC(=O)N(c2ccc(Br)cc2)C1=O (configuration not stated),5.0%
O=C1C(SC(F)(F)C(F)F)=C(C(F)(F)F)OC2C3C=CC(C3)C12 (configuration not stated),-5.1%
Cc1ccccc1C(=O)Nc1cccc(NC(=O)c2cccnc2)c1,22.7%
Cc1ccc(NC(=O)c2ccccc2NS(=O)(=O)c2ccc(F)cc2)cc1S(=O)(=O)N1CCCCC1,-4.2%
COCCCNC(=O)c1ccc(-n2c(-c3ccccc3)cc3c2CCCC3)cc1,4.0%
Cc1ccccc1-n1nnnc1SCC(=O)Nc1ccc(S(=O)(=O)N2CCCC2)cc1,5.4%
Cc1ccc(NC(=O)CSCC(=O)NNC(=O)c2nn(C)c(=O)c3ccccc23)cc1,?
O=C(Nc1ccc(Br)cc1)/C(=C/c1cccc([N+](=O)[O-])c1)NC(=O)C1CCCCC1,3.2%
CCc1ccc2[nH]c(=O)c(C(c3nnnn3CCOC)N3CCN(c4ccc(F)cc4)CC3)cc2c1 (configuration not stated),-7.8%
O=S(=O)(c1ccc(F)cc1)N1CCN(C(=S)NCCc2ccccc2)CC1,-12.4%
CCOC(=O)COc1ccc(N)cc1CC(NC(C)=O)(C(=O)OCC)C(=O)OCC,-7.1%
COc1ccc(-n2c(=S)[nH]c3cc(C(=O)N4CCN(c5ccccc5)CC4)ccc3c2=O)c(OC)c1,9.1%
COc1ccc(C(=O)Nc2c3c(nn2-c2ccc(Cl)cc2)CS(=O)(=O)C3)cc1,-4.7%
COc1cc(OC)cc(C(=O)N[C@H](C(=O)Nc2nnc(C3CC3)s2)C(C)C)c1,-0.5%
CCOc1c(S(=O)(=O)NC2CC(C)(C)NC(C)(C)C2)ccc(Cl)c1Cl,8.2%
Cc1ccccc1Nc1cc(C(=O)NC2CCCC2)c2ccccc2n1,-17.4%
CC(C)c1ccc(OC(=O)c2cccc(S(=O)(=O)N3CCN(C)CC3)c2)cc1,-3.0%
Cc1ccc(OC(=O)c2cc3ccccc3o2)cc1,-15.7%
COc1cc(-n2c(=O)c3ccccc3n(CC(=O)c3ccccc3)c2=O)cc(OC)c1OC,2.9%
COc1ccc(-c2nnc(SCC(=O)NCc3ccc(C)cc3)nc2-c2ccc(OC)c(OC)c2)cc1OC,7.7%
Cc1ccc(Cl)cc1N1CCN(C(=O)c2cc(S(=O)(=O)N3CCC(C)CC3)cn2C)CC1,11.2%
CCOC(=O)/C(C)=N/NC(C)=O,5.8%
O=C(CSc1nc2cc(Cl)c(Cl)cc2[nH]1)c1ccc2c(c1)OCO2,12.9%
O=C(c1cc2ccccc2o1)N(C1CC1)C1(C(=O)Nc2ccccc2)CCCC1,-5.7%
COC(=O)Cc1c(C)nc(SCc2ccccc2)[nH]c1=O,-6.1%
CC(C)Sc1nc2c(cnn2-c2ccc(F)cc2)c(=O)[nH]1,-7.4%
Cc1nc(CCNC(=O)CC2C(=O)NCCN2Cc2ccc(F)cc2)sc1C (configuration not stated),-14.7%
O=C(CSCc1ccc(F)cc1)N1CCN(c2ccccc2)CC1,20.7%&0.4%
Cc1ccc2c(c1)/C(=C/c1ccco1)C(=O)N2,-7.5%
COC1=CC(=O)OC(c2ccco2)C1 (configuration not stated),-7.1%
CC(OC(=O)[C@@H]1CCCN1C(=O)c1cccs1)C(=O)Nc1cccc([N+](=O)[O-])c1 (some centres not stated),2.5%
CC(=O)N1CCN(C(=O)c2ccc(S(=O)(=O)Nc3ccccc3F)cc2)CC1,-4.2%
CC(C)c1cccc(C(C)C)c1OC(=O)NC(=O)c1c(F)cccc1F,-16.9%
Cn1cc(CCCC(=O)NCc2ccccc2Cl)c2ccccc21,15.7%
COc1cc(NC(=O)COc2ccc(Br)cc2)ccc1NC(=O)C(C)C,20.8%
Cc1ccc(SC(C)C(=O)Nc2ccccc2-c2ccccc2)cc1 (configuration not stated),-12.8%
Cc1cc(C)nc(SC2CC(=O)N(c3ccc(Cl)cc3)C2=O)n1 (configuration not stated),-12.2%

Screening data from PubChem.

The list is partial, so the mix of outcomes need not match the whole.
